FGF22 binding = binders of recombinant human FGF22 by thermal shift; calls only at 9.99 µM; Q9HCT0; SYPRO orange fluorescence; percent of sucrose octasulfate shift, DMSO zero; 340,000 tested, 1.5% active; AID 651658;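 active = melting point raised past a set limit in the mean and every replicate; three in four hits are not shown here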
Target sequence (Q9HCT0 whole entry, looked up): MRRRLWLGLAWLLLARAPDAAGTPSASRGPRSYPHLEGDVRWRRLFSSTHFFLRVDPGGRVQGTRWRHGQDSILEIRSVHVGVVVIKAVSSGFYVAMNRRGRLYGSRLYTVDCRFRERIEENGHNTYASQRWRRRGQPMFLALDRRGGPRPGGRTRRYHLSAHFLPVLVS
AF4-AF9 inh = blocks AF4 peptide binding to human AF9; AlphaScreen, biotin-AF4 peptide binding to FLAG-AF9; P42568; 350,000 tested, 0.47% active; inhibition, % at 10 µM;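 active = every replicate reaching a set inhibition limit, whatever the replicate mean, cut at about 25% in these data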;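 note: 0% = plate neutral control median and 100% = total signal loss; the record names both 10 and 1 µM as test concentration; the first replicate is given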
Target sequence (P42568 whole entry, looked up): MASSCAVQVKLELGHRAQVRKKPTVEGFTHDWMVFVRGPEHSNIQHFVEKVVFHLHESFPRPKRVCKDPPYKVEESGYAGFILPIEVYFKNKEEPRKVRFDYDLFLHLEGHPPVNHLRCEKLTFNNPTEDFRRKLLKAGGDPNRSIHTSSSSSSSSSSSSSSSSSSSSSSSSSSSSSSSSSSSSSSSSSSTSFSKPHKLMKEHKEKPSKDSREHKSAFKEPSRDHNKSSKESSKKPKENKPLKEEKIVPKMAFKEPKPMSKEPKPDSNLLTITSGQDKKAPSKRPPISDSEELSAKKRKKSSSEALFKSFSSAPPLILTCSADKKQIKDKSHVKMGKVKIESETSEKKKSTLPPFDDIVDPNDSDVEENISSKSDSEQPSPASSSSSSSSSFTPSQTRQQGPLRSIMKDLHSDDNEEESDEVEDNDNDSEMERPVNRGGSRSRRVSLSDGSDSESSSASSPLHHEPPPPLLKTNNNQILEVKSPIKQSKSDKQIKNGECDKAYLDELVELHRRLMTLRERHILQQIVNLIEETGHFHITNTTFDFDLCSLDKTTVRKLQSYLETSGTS
* hit, by the source's call; i = inactive; + = active, no number.

SMILES	FGF22 binding	AF4-AF9 inh
C[C@@H]1CN([C@@H](C)CO)C(=O)Cc2cc(NC(=O)Cn3cnnn3)ccc2O[C@H]1CN(C)S(=O)(=O)c1ccccc1	i	-2.0
O=C1NC(Cc2ccc(O)cc2)c2nc3ccccc3c(=O)n2-c2cc(Cl)ccc21 (stereo not given)	i	3.8
CCCC#Cc1ccc2c(c1)O[C@H](CN(C)CCC)[C@H](C)CN([C@H](C)CO)S2(=O)=O	i	2.3
OC[C@H]1[C@@H]2c3ccccc3NC[C@@H]2N1CC1CCCCC1	i	0.9
C[C@@H]1CN([C@H](C)CO)C(=O)c2cc(C#CCN(C)C)cnc2O[C@H]1CN(C)Cc1cccc(C(=O)O)c1	i	-9.0
O=[N+]([O-])c1ccc(CN2[C@H](COCc3ccccc3)C=CS2(=O)=O)cc1	i	1.2
COCCN1Cc2cc(C(=O)OC)c3c(c2C1=O)c1cc(OC)ccc1n3S(=O)(=O)c1ccc(C)cc1	i	2.9
CO[C@@H]1CN(C)C(=O)c2cc(NC(=O)C3CC3)ccc2OC[C@H](C)N(CC2CC2)C[C@H]1C	i	-1.5
COc1ccc(NC(=O)Nc2ccc3c(c2)C(=O)N([C@H](C)CO)C[C@@H](C)[C@H](CN(C)C(=O)Nc2c(C)noc2C)OCCCC[C@@H](C)O3)cc1	i	3.2
COc1ccc(NC(=O)Nc2ccc3c(c2)[C@H]2C[C@H](CC(=O)NCC(F)(F)F)O[C@@H](CO)[C@H]2O3)cc1	i	4.5
COCC(=O)N1CC(=O)N2[C@H](CO)[C@@H](c3ccc(Br)cc3)[C@H]2C1	i	-2.1
COc1ccc(S(=O)(=O)Nc2ccc3c(c2)C(=O)N([C@@H](C)CO)C[C@@H](C)[C@@H](CN(C)Cc2ccncc2)OCCCC[C@H](C)O3)cc1	i	-1.5
COc1ccc(-c2cnc3c(c2)C(=O)N([C@@H](C)CO)C[C@H](C)[C@H](CN(C)Cc2ccc(C(=O)O)cc2)O3)cc1	i	-6.5
CO[C@H]1CN(C)C(=O)c2cc(NS(=O)(=O)c3ccc(C)cc3)ccc2OC[C@@H](C)N(C(=O)NC(C)C)C[C@@H]1C	+	-2.5
CN(C)CC(=O)Nc1ccc2c(c1)[C@@H]1C[C@H](CC(=O)NCC3CC3)O[C@H](CO)[C@@H]1O2	i	-2.3
C[C@@H]1CN([C@@H](C)CO)C(=O)c2cccc(NC(=O)CCCCCC(=O)Nc3ccccc3N)c2O[C@@H]1CN(C)S(=O)(=O)c1ccccc1	i	0.0
C[C@H]1CCCCO[C@H](CN(C)C(=O)Nc2ccc(F)cc2)[C@@H](C)CN([C@@H](C)CO)C(=O)c2cc(NC(=O)c3ccccc3)ccc2O1	i	1.6
CO[C@@H]1CN(C)C(=O)c2cc(NC(=O)Cc3ccccc3)ccc2OC[C@H](C)N(C(C)=O)C[C@@H]1C	i	0.3
O=C(c1ccccn1)N1CC2(C1)[C@@H](c1ccccc1)[C@H](CO)N2C(=O)CC1CC1	i	0.4
CO[C@H]1CN(C)C(=O)c2ccc(NC(=O)c3ccc(Oc4ccccc4)cc3)cc2OC[C@H](C)NC[C@@H]1C	i	11
Cc1ccc(S(=O)(=O)N[C@H]2CC[C@@H](CCNS(=O)(=O)Cc3ccccc3)O[C@@H]2CO)cc1	i	0.6
COc1cccc(S(=O)(=O)N[C@@H]2C=C[C@H](CC(=O)NCc3ccc(Cl)cc3)O[C@@H]2CO)c1	i	-4.0
C[C@H]1CCCCO[C@H](CN(C)C(=O)NC2CCCCC2)[C@@H](C)CN([C@@H](C)CO)C(=O)c2cc(NC(=O)Nc3ccc(C(F)(F)F)cc3)ccc2O1	i	1.1
CC(C)NC(=O)Nc1cccc2c1O[C@@H](CN(C)C(=O)NC(C)C)[C@@H](C)CN([C@@H](C)CO)C2=O	i	-4.0
CC(=O)NCCCC[C@@H]1NC(=O)[C@@H]2C[C@H](C(=O)NCc3ccc(F)cc3)[C@H](c3ccc(O)cc3)N2C1=O	i	-1.1
COc1ccc(S(=O)(=O)N(C)C[C@H]2OCCCC[C@H](C)Oc3ccc(NS(=O)(=O)c4cn(C)cn4)cc3C(=O)N([C@@H](C)CO)C[C@@H]2C)cc1	i	-0.9
C[C@H](CO)N1C[C@H](C)[C@@H](CN(C)C(=O)NC2CCCCC2)Oc2ccc(NC(=O)C3CCCCC3)cc2CC1=O	i	0.7
Cc1noc(C)c1NC(=O)Nc1ccc2c(c1)CC(=O)N([C@H](C)CO)C[C@H](C)[C@H](CN(C)C(=O)NC1CCCCC1)O2	i	2.9
CC(C)NC(=O)N(C)C[C@H]1Oc2c(NC(=O)C3CC3)cccc2C(=O)N([C@H](C)CO)C[C@H]1C	i	-1.4
O=C(C[C@H]1C=C[C@H](NC(=O)Nc2cccc(F)c2)[C@H](CO)O1)NCC1CC1	i	0.3
CCCN1[C@H](C(=O)N2CCOCC2)[C@@H](CO)[C@@H]2Cn3c(ccc(-c4ccccc4)c3=O)[C@@H]21	i	0.5
C[C@H](NC(=O)C[C@@H]1C[C@H]2c3cc(NC(=O)NC4CCCC4)ccc3O[C@H]2[C@@H](CO)O1)c1ccccc1	i	-4.0
CCC(=O)N1CC2(C1)[C@H](c1ccc(-c3cccc(OC)c3)cc1)[C@@H](CO)N2C(C)=O	i	-0.8
CCCNC(=O)C[C@@H]1CC[C@H]2[C@H](COc3ccc(NC(=O)CCC)cc3C(=O)N2C)O1	i	-1.2
C[C@@H]1CCCCO[C@@H](CN(C)C(=O)Nc2ccc3c(c2)OCO3)[C@@H](C)CN([C@H](C)CO)C(=O)c2cc(NS(C)(=O)=O)ccc2O1	i	-2.3
CCC(=O)N(C)C[C@H]1Oc2ncc(/C=C/c3ccccc3)cc2C(=O)N([C@@H](C)CO)C[C@@H]1C	i	2.5
Cc1noc(C)c1NC(=O)N(C)C[C@H]1Oc2c(NS(=O)(=O)c3ccccc3)cccc2C(=O)N([C@H](C)CO)C[C@@H]1C	i	-6.4
C[C@@H]1CN([C@H](C)CO)C(=O)c2cccc(NC(=O)CCCCCC(=O)Nc3ccccc3N)c2O[C@@H]1CN(C)S(=O)(=O)c1ccc(F)cc1	i	-2.6
COCC(=O)Nc1ccc2c(c1)C(=O)N(C)C[C@H](OC)[C@H](C)CN(C(=O)c1ccncc1)[C@H](C)CO2	i	3.7
C[C@@H]1CN([C@@H](C)CO)C(=O)c2cccc(NC(=O)Nc3ccc(C(F)(F)F)cc3)c2O[C@@H]1CN(C)C(=O)Nc1cccc2ccccc12	i	3.8
CCCN1C[C@H](C)[C@H](OC)CN(C)C(=O)c2cc(NS(=O)(=O)CC)ccc2OC[C@@H]1C	i	-1.8
CO[C@@H](CN(C)Cc1cc(F)ccc1F)[C@H](C)CN(C(=O)Nc1ccc(F)cc1)[C@H](C)CO	i	3.1
C[C@H]1CN([C@@H](C)CO)C(=O)Cc2cc(NS(=O)(=O)c3cccs3)ccc2O[C@H]1CN(C)Cc1ccc(-c2ccccc2)cc1	i	1.9
CN(C)CCCNC(=O)C[C@@H]1CC[C@H]2[C@H](COc3ccc(NC(=O)NC4CCCC4)cc3C(=O)N2C)O1	i	-0.4
COCC(=O)N1CCCCN2[C@@H](CO)[C@H](c3ccc(-c4ccc(OC)cc4)cc3)[C@@H]2C1	i	-0.9
C[C@H](O)C#Cc1ccc([C@@H]2[C@@H](CO)N3CCCCN(C(=O)c4ccc(F)cc4)C[C@@H]23)cc1	i	-6.0
O=C(Nc1ccc(Cl)cc1)Nc1ccc(Cl)c(Cl)c1	i	-1.3
C[C@H](CO)N1C[C@H](C)[C@@H](CN(C)Cc2ccccn2)Oc2cc(C#C[C@@H](C)O)ccc2S1(=O)=O	i	-1.7
C[C@H]1CN([C@@H](C)CO)C(=O)c2cc(-c3cccc(F)c3)cnc2O[C@H]1CN(C)Cc1ccccn1	i	-4.8
CCC(=O)N1C[C@H]2[C@@H](c3ccccc31)[C@@H](CO)N2CC1CCCC1	i	2.5
C[C@H](CO)N1C[C@H](C)[C@H](CN(C)CC2CCCCC2)Oc2ccc(NC(=O)CCC(F)(F)F)cc2C1=O	i	-11
CCC(=O)N[C@@H]1C=C[C@H](CC(=O)NCc2ccccc2OC)O[C@H]1CO	i	-1.6
O=C1N[C@@H](Cc2ccccc2)COCn2nncc2CC[C@@H]1Cc1ccccc1	i	2.0
C[C@@H]1CN([C@H](C)CO)C(=O)Cc2cc(N(C)C)ccc2O[C@@H]1CN(C)Cc1ccncc1	i	-1.7
C[C@@H]1CN([C@H](C)CO)C(=O)c2cccc(NC(=O)C3CCCCC3)c2O[C@H]1CN(C)Cc1ccc(C(F)(F)F)cc1	i	2.0
CCC(=O)Nc1ccc2c(c1)C(=O)N(C)[C@H]1CC[C@H](CC(=O)NCc3ccccc3)O[C@@H]1CO2	i	-2.4
CCCC(=O)Nc1ccc2c(c1)OC[C@@H](C)N(CCC(F)(F)F)C[C@H](C)[C@@H](OC)CN(C)C2=O	i	-0.6
COC(=O)c1cc2c(c3c4cc(OC)ccc4n(S(=O)(=O)c4cccc(C)c4)c13)C(=O)N(Cc1ccc(C(F)(F)F)cc1)C2	i	1.5
C[C@@H]1CCCCO[C@H](CN(C)C(=O)NC2CCCCC2)[C@H](C)CN([C@H](C)CO)C(=O)c2cc(N(C)C)ccc2O1	i	2.3
CCC(=O)N1CC2(C1)[C@H](c1ccccc1)[C@@H](CO)N2C(=O)c1ccncc1	i	-1.5

Full records from above.
`C[C@@H]1CN([C@H](C)CO)C(=O)Cc2cc(N(C)C)ccc2O[C@@H]1CN(C)Cc1ccncc1` is entered as FGF22 binding = i; AF4-AF9 inh = -1.7
`C[C@H](CO)N1C[C@H](C)[C@H](CN(C)CC2CCCCC2)Oc2ccc(NC(=O)CCC(F)(F)F)cc2C1=O` is entered as FGF22 binding = i; AF4-AF9 inh = -11

Later entries
SMILES	FGF22 binding	AF4-AF9 inh
C[C@H]1CN([C@@H](C)CO)C(=O)Cc2cc(NS(=O)(=O)c3ccc(F)cc3)ccc2O[C@@H]1CN(C)Cc1ccc(C(F)(F)F)cc1	i	-0.1
CC(=O)N(C)C[C@H]1Oc2cc(C#CC(C)(C)O)ccc2S(=O)(=O)N([C@H](C)CO)C[C@@H]1C	i	-0.6
C[C@H](O)C#Cc1ccc2c(c1)O[C@H](CN(C)C(=O)Nc1ccccc1)[C@@H](C)CN([C@@H](C)CO)S2(=O)=O	i	-1.4
COc1ccc(-c2ccc3c(n2)CCCN3S(=O)(=O)c2ccc(C(F)(F)F)cc2)cc1	i	0.8
CCCC#Cc1ccc([C@@H]2[C@@H](CO)N3CCCCN(C(=O)c4ccc5c(c4)OCO5)C[C@@H]23)cc1	i	1.5
CO[C@@H]1CN(C)C(=O)c2cc(NC(=O)c3ccccc3)ccc2OC[C@H](C)N(C(C)=O)C[C@@H]1C	i	3.1
CN(C)CC(=O)Nc1ccc2c(c1)[C@@H]1C[C@@H](CC(=O)N3CCCCC3)O[C@@H](CO)[C@@H]1O2	i	2.8
Cc1cccc(S(=O)(=O)N(C)C[C@H]2OCc3ccccc3-c3ccccc3C(=O)N([C@H](C)CO)C[C@@H]2C)c1	i	4.5
COc1cc(CN2CC3(CCN(C(=O)CN4CCOCC4)CC3)c3c(n(C)c4cc(OC)ccc34)[C@@H]2CO)cc(OC)c1	i	3.5
C[C@@H]1CN([C@@H](C)CO)S(=O)(=O)c2ccc(-c3cccnc3)cc2O[C@@H]1CN(C)C(=O)NC1CCCC1	i	2.9
CCC(=O)Nc1ccc2c(c1)OC[C@H](C)N(C(=O)c1ccncc1)C[C@@H](C)[C@@H](OC)CN(C)C2=O	i	-0.8
C[C@@H]1CN([C@H](C)CO)C(=O)c2c(c3ccccc3n2C)-c2ccccc2CO[C@H]1CN(C)S(=O)(=O)c1ccccc1F	i	1.4
Cc1noc(C)c1NC(=O)N(C)C[C@H]1Oc2ncc(C#CC(C)C)cc2C(=O)N([C@@H](C)CO)C[C@H]1C	i	-4.9
C[C@H]1CN([C@@H](C)CO)S(=O)(=O)c2ccc(C3=CCCCC3)cc2O[C@@H]1CN(C)Cc1ccccn1	i	18
CCCNC(=O)NC[C@@H]1[C@H](c2ccc(C3=CCCCC3)cc2)[C@H](CO)N1C(C)=O	i	6.9

Part of the list above, reformatted.
Under each structure: FGF22 binding, AF4-AF9 inh
> C[C@@H]1CN([C@H](C)CO)C(=O)c2c(c3ccccc3n2C)-c2ccccc2CO[C@H]1CN(C)S(=O)(=O)c1ccccc1F
  i, 1.4
> C[C@@H]1CN([C@@H](C)CO)S(=O)(=O)c2ccc(-c3cccnc3)cc2O[C@@H]1CN(C)C(=O)NC1CCCC1
  i, 2.9
> C[C@H](O)C#Cc1ccc2c(c1)O[C@H](CN(C)C(=O)Nc1ccccc1)[C@@H](C)CN([C@@H](C)CO)S2(=O)=O
  i, -1.4
> C[C@H]1CN([C@@H](C)CO)S(=O)(=O)c2ccc(C3=CCCCC3)cc2O[C@@H]1CN(C)Cc1ccccn1
  i, 18
> CCC(=O)Nc1ccc2c(c1)OC[C@H](C)N(C(=O)c1ccncc1)C[C@@H](C)[C@@H](OC)CN(C)C2=O
  i, -0.8

Further compounds follow:
SMILES	FGF22 binding	AF4-AF9 inh
COc1ccccc1S(=O)(=O)N1CC[C@@H]2[C@H]1c1cc(-c3ccccc3)ccc1N(C)[C@H]2CO	i	-4.1
O=C(N[C@H]1CC[C@H](CC(=O)N2CCCCC2)O[C@@H]1CO)c1ccc2c(c1)OCO2	i	-1.5
C[C@@H]1CN([C@H](C)CO)C(=O)c2cc(C#CC3CCCC3)cnc2O[C@@H]1CN(C)C(=O)Cc1ccccn1	i	-2.8
CO[C@H]1CN(C)C(=O)c2ccc(NC(C)=O)cc2OC[C@H](C)N(Cc2ccc(F)cc2)C[C@@H]1C	i	0.4
C[C@@H]1CCCCO[C@H](CN(C)C(=O)Nc2ccc(C(F)(F)F)cc2)[C@H](C)CN([C@@H](C)CO)C(=O)c2cc(NC(=O)CCC(F)(F)F)ccc2O1	i	-0.5

The list is partial. The share of hits here may be higher or lower than overall.
